Mtb hypoxia rep = PubChem AID 1159583; M. tuberculosis hypoxia-regulated fluorescent reporter, fluorescence; fluorescence inhibition, % (test concentration not listed); 300,000 compounds, 0.1% hits;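 active = 35 to 45% if threefold the growth effect, above 45% if 1.5-fold the growth effect; inactive = the rest, general growth blockers included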;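 also: wells of about 50 µL received 100 nL stock; 0% = vehicle wells and 100% = reference inhibitor wells; whole bacteria with a GFP reporter of the hypoxia response; strong numbers were not always called active; many hits fall short of the cut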
Sa RN4220 lethal = growth inhibition of S. aureus RN4220, primary screen, OD600. 330,000 compounds, 0.33% hits. inhibition, % (concentration not given with the values). 16 h;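 active = z-score of -3 or lower and OD600 up to 0.18 on both plates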;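 also: plate controls were untreated cells for no effect and reference antibiotic for full effect; stock transfer was 100 nL into about 80 µL; one replicate is shown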
BJeLR lethal = MLPCN primary cell-based screen for lethality selective to Ras in HRASV12 cells; 300,000 compounds, 0.17% hits; BJeLR (HRASV12) viability, CellTiter-Glo ATP luminescence, 48 h; reference of the scale not given here; inhibition, % (test concentration not listed);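 active = replicate mean above 50%; inconclusive = above 50% but judged a plate artefact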;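 also: 50 nL library stock added to about 25 µL; numbers are from one replicate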
ugtP null kill = growth inhibition of ugtP-null S. aureus, primary screen, RN4220 ugtP deletion, OD600. AID 1259309, 2017. 330,000 compounds, 0.54% hits. 16 h; some inactives read as strong as hits. growth inhibition, % (concentration not given with the values);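 active = z-score under -3 and OD600 up to 0.15 on both plates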;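 also: plate controls were untreated wells for no effect and antibiotic for full effect; wells of about 80 µL received 100 nL stock; the first replicate is given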
Bead autofluor = compound fluorescence in toxin protease inhibitor counterscreen. compound autofluorescence counterscreen, microsphere flow cytometry; stronger effect = higher value. 360,000 compounds, 3.1% hits. fluorescence intensity (test concentration not listed). AID 624483;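 active = at least 3 SD above the mean of all compounds, about 16000 in these data; inconclusive = too few beads counted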;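 also: 100 nL of 1 mM stock went into each well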
PrP UTR inh = inhibition of PrP 5' UTR reporter expression. 340,000 compounds, 0.35% hits. cell-based PrP 5' UTR mRNA reporter, plate reader. AID 488862, 2010. inhibition, % (concentration not given with the values);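 active = every replicate at 50% or more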;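 also: 0 = median of the neutral control wells; tested in H4 reporter cells; numbers are from one replicate; inactives centre near -14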
Mtb hypoxia rep growth = second read-out of Mtb hypoxia rep, no call of its own (marks repeat the call); growth inhibition, %; measured here: M. tuberculosis growth (absorbance);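 0% = vehicle and 100% = reference antibiotic; read after six days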
The depositor's hits bear a star; ? = inconclusive; nt = no result given; & = joins results of further samples.

SMILES,Mtb hypoxia rep,Mtb hypoxia rep growth,Sa RN4220 lethal,BJeLR lethal,ugtP null kill,Bead autofluor,PrP UTR inh
CCOC(=O)c1oc2ccccc2c1NC(=O)c1ccc2c(c1)OCO2,5,10,6.0,12,-24,24146*,-67
COc1ccc(CCNC(=O)Cn2cnc3sc(C)c(-c4ccc(F)cc4)c3c2=O)cc1OC,8,3,-1.1,5,5,5526,73*
COC(=O)c1ccc(CN2CCCC(C(=O)Nc3ccc(-c4ccn[nH]4)cc3)C2)cc1 (configuration not stated),-3,-1,1.2,-2,4,6814,6
CCOc1ccc(S(=O)(=O)Nc2ccc(C(=O)NCC3CCCO3)cc2)cc1 (configuration not stated),3,-2,-0.2,-3,14,4537,-28
O=c1c2ccccc2nnn1Cc1ccc2ccccc2c1,8,1,27,-5,-4,3996,-26
CCCC(=O)Nc1ccc(N2CCOCC2)cc1,-1,2,-3.2,1,7,4216,-16
O=C(c1ccco1)N1CCC(c2nc(-c3ccccc3Cl)no2)CC1,8,4,5.1,-4,4,11098,nt
Cc1n[nH]c(=O)nc1Nc1ccc(O)cc1,5,2,0.7,-1,-2,10842,-14
O=C(NC1=NCCS1)C1CCN(S(=O)(=O)c2cc([N+](=O)[O-])ccc2Cl)CC1,4,10,3.1,nt,-3,3361,-19
Cc1cc(OCC(=O)Nc2ccccc2N2CCCC2)ccc1C(C)C,14,6,1.9,-7,12,nt,-8

Ordered by formula weight (highest first): 3 of the compounds above.
SMILES,Mtb hypoxia rep,Mtb hypoxia rep growth,Sa RN4220 lethal,BJeLR lethal,ugtP null kill,Bead autofluor,PrP UTR inh
COC(=O)c1ccc(CN2CCCC(C(=O)Nc3ccc(-c4ccn[nH]4)cc3)C2)cc1 (configuration not stated),-3,-1,1.2,-2,4,6814,6
Cc1cc(OCC(=O)Nc2ccccc2N2CCCC2)ccc1C(C)C,14,6,1.9,-7,12,nt,-8
O=c1c2ccccc2nnn1Cc1ccc2ccccc2c1,8,1,27,-5,-4,3996,-26

Additional structures follow.
SMILES,Mtb hypoxia rep,Mtb hypoxia rep growth,Sa RN4220 lethal,BJeLR lethal,ugtP null kill,Bead autofluor,PrP UTR inh
CC(=NNc1nc(C)cc(-c2ccccc2)n1)c1ccc(C)o1,6,13,3.9,nt,-17,nt,nt
CCOC(=O)CC[C@H](NC(=O)Cn1cnc2c(OCc3ccccc3)ncnc21)C(=O)OCC,-11,4,1.9,nt,1,3449,-33
CSc1ccccc1-c1nnc(NC(=O)Cc2ccccc2)o1,-2,1,-2.5,-5,-1,nt,-14
Cc1cc(C)cc(-n2c(C)cc(/C=N/NC(=O)CSc3ncccn3)c2C)c1,nt,nt,nt,-8,nt,6689,-11
CCOC1OC(C(=O)N2CCN(Cc3ccc4c(c3)OCO4)CC2)=CC(c2ccc(Br)cc2)C1CCCO (configuration not stated),21&-1,10&1,2.4&2.0,nt,6&14,nt,nt
N#Cc1nc(Cc2cccc3ccccc23)oc1NCC1CCCO1 (configuration not stated),-7,6,-5.7,6,-14,21943*,-25
Cc1c(S(=O)(=O)NC2CCCCC2)c(=O)n(C)c(=O)n1C,3,1,0.4,-6,-2,?,-10
CN1CCN(c2ccccc2NC(=O)c2ccc3c(c2)OCCO3)CC1,3,0,0.4,-2,10,3384,-25
C/C(=N\NC(=O)c1ccc(Br)cc1)C1C(=O)c2ccccc2C1=O,nt,nt,nt,4,nt,10468,-24
O=C1CCC([N+](=O)[O-])C(c2ccc(-c3ccccc3)cc2)N1 (configuration not stated),13,12,0.0,7,5,4295,-15
O=C(Cn1ncnn1)OCc1ccccc1Cl,nt,nt,4.8,-1,-1,2950,1
NCCCCC1CN=C(N)N1CCC12CC3CC(CC(C3)C1)C2 (configuration not stated),0,5,2.7,nt,1,nt,nt
Cc1cccc(N(C(=O)Cn2nnc3ccccc32)C(C(=O)NC(C)(C)C)c2ccsc2)c1 (configuration not stated),-5,-6,2.0,-5,10,8206,-15
COCCN(CCOC)c1ncnc2c1cnn2-c1ccccc1,4,6,4.1,-3,7,5974,-7
S=c1[nH]nc(-c2c[nH]c3ccccc23)o1,4,4,11,7,9,3553,nt
COc1cc(-c2noc(CCC(N)=O)n2)cc(OC)c1OC,-4,-1,4.3,2,6,nt,nt
Cc1ccc(NCCC(=O)c2ccc(Cl)cc2)cc1C,-2,-2,-2.3,2,0,24235*,-19
CCCC[C@@H]1C=C(C(=O)O)[C@H](c2ccc(C)cc2)N1S(=O)(=O)c1ccc(C)cc1,-8,2,18,nt,12,3078,-13
Oc1oc(-c2ccccc2)nc1C=Nc1ccccc1,2,3,4.0,-1,-4,13340,-89
Cc1nc(C(=O)N(C)C)nn1-c1cc(Cl)ccc1Cl,6,-3,1.5,-1,2,6111,-39
COc1ccc(OC)c(C2NC(=O)CCC2[N+](=O)[O-])c1 (configuration not stated),-5,-3,1.8,-4,6,3834,-23
Cn1c(SCC(=O)NC2CCCCC2)nnc1-c1cccnc1,-11,-4,3.4,2,0,3061,-2
N#Cc1cc(C(=O)c2cc(F)ccc2O)cn(Cc2ccccc2)c1=O,-5,11,-0.8,-5,-3,2152,-22
O=C(COC(=O)C1CC2CCCC(C1)C2=O)Nc1ccccc1 (configuration not stated),10,4,1.9,nt,8,3816,-15
Fc1ccccc1-c1nc2ncccc2o1,-8,8,1.3,-7,6,4293,-9
O=c1c(S(=O)(=O)c2ccc(Cl)cc2)cn(Cc2ccccc2F)c2ccc(F)cc12,5,2,-3.9,-5,0,2440,-17
COCCCNC(=O)C12CCC(C)(C(=O)C1)C2(C)C (configuration not stated),nt,nt,2.1,5,0,4116,-3
COc1ccccc1N1CCN(CC(=O)Nc2cccc(F)c2)CC1,nt,nt,3.3,-5,-4,4139,-31
Cc1nn(Cc2ccc(F)cc2)c(Cl)c1C=NNC(=O)c1ccccc1,-11,5,12,nt,5,nt,nt
CC1CCCCN1c1ncnc(N)c1[N+](=O)[O-] (configuration not stated),4,1,2.4,7,5,4416,8
C=CCc1c(NCCO)nc(C)[nH]c1=O,1,-15,3.0,2,4,4261,-11
O=C(NCCN1CCOCC1)c1ccc(Cl)cc1O,-4,1,3.6,0,4,4286,-5
COc1ccc(Cl)cc1S(=O)(=O)NC(C)C(=O)NCc1ccc2c(c1)OCO2 (configuration not stated),5,3,3.0,4,1,3676,-27
CCOc1ccc(S(=O)(=O)N2CCOCC2)cc1NC(=O)CSCC(=O)Nc1ccc(OC)cc1,8,2,5.6,nt,10,3003,-17
Cc1cc(C(=O)N2CCN(S(=O)(=O)c3ccccc3C#N)CC2)c(C)o1,13,7,0.3,nt,0,3775,-14
COc1ccccc1Nc1nc(N)nc(CN2CCCCC2)n1,5,5,2.3,-2,2,4355,-17
CCOC(=O)c1c(C)[nH]c(C)c1C(=O)COC(=O)/C=C/c1cccc(Cl)c1,11,7,5.4,16,-7,2413,-13
O=C(O)c1cc(Cl)c(Cl)cc1C(=O)N1CCOCC1,18,2,2.1,-7,0,10594,-17
COc1ccc(CCNC(=O)COc2ccc(-c3ccc(C#N)cc3)cc2)cc1,9,3,3.3,18,-1,2120,2
N#CCC(=O)N1CCN(C(c2ccccc2)c2ccccc2)CC1,16,9,3.1,3,6,3976,nt
O=C(NC1CC2CCCC(C1)N2C(=O)NC1CCCCC1)c1ccc(F)cc1 (configuration not stated),4,-2,-0.3,2,5,6587,-15
O=C(CSc1ccc(-c2cccc([N+](=O)[O-])c2)nn1)NC1CCCC1,-6,2,-4.0,0,-3,3250,-43
Cc1nc(SCc2nc3c(F)cccc3[nH]2)c2oc3ccccc3c2n1,8,10,-0.5,nt,17,2960,-25
COc1ccc(C(C(=O)NCc2ccccc2)N(C(=O)c2snc(C(N)=O)c2N)c2ccccc2OC)cc1 (configuration not stated),-12,7,-1.3,0,-1,3793,2
CC(=O)Oc1ccc(C(=O)Nc2ccccc2C(=O)N2CCCCC2)cc1,-2,4,3.9,14,3,4588,-30
CC(=O)NCC(=O)NC1CCCc2c1cnn2-c1ccccc1F (configuration not stated),-2,6,3.3,5,1,3279,-24
COCCCNc1nc2c(c(=O)n(Cc3ccc(F)cc3)c(=O)n2C)n1C,4,0,2.8,8,1,3904,-14
Cc1ccc(C(=O)NCC(=O)NCCSc2ccc(Br)cc2)cc1,-2,0,2.2,7,2,?,-4
CCCCNC(=O)C1CCN(c2nc(OC)nc(OC)n2)CC1,9,7,4.0,0,13,3350,-6
Cc1ccc(CNC(=O)CCS(=O)(=O)c2cccc3nsnc23)cc1,4,-5,3.6,-2,4,4471,-2

Carrying on.
SMILES,Mtb hypoxia rep,Mtb hypoxia rep growth,Sa RN4220 lethal,BJeLR lethal,ugtP null kill,Bead autofluor,PrP UTR inh
O=C(NN=Cc1cccc(OC(=O)c2cccc(Br)c2)c1)c1cccnc1,12,0,-0.2,nt,-8,nt,nt
CC(NC(=O)COc1cccc(Br)c1)C(=O)O (configuration not stated),nt,nt,nt,-5,nt,11048,-16
C=C(C)Cn1c(C)cc(C)c(S(=O)(=O)c2ccccc2C)c1=O,nt,nt,8.6,4,1,2698,-12
CCOC(=O)C1CCN(C(=O)c2cc(-c3ccncc3)nc3ccccc23)CC1,-7,-3,1.7,nt,7,4588,4
C/C(O)=C\c1nc2ccccc2oc1=O,nt,nt,nt,5,nt,2231,-3
Cc1ccc(CN2CCN(Cc3cn(C)nc3-c3ccccc3)CC2CCO)o1 (configuration not stated),-5,7,-1.7,-7,-6,5384,-19
Cc1ccsc1/C=N/NC(=O)c1ccc(Cn2cc(Br)cn2)o1,nt,nt,nt,-4,nt,9506,-27
COc1ccc(OCc2nc3ccccc3[nH]2)cc1,3,13,0.4,9,1,10905,-63
COc1ccc(/C=C2\N=C(C)N(c3ccc(C(=O)O)cc3)C2=O)cc1OC,19,12,4.8,-7,6,2031,-30
COc1cc(NC(=O)c2ccc(=O)[nH]n2)cc(OC)c1OC,5,-3,0.7,2,3,3300,-9
Cc1ccc(C)c(S(=O)(=O)N2CCCC2CNC(=O)C(=O)NC2CC2)c1 (configuration not stated),2,2,2.2,0,8,5041,-10
CCOC(=O)c1nn(-c2ccccc2)c(C#N)c1N,6,7,8.0,-1,3,2015,-3
COc1ccccc1C/C(N)=N/OC(=O)COc1cccc(C)c1C,11,-4,35,-4,3,3301,-26
CCOc1ccc(NC(=S)N2CCN(S(C)(=O)=O)CC2)cc1,10,3,0.7,-1,10,6073,-26
CCOC(=O)C(=NC1CCS(=O)(=O)C1)NNc1ccccc1Cl (configuration not stated),11,12,1.9,-2,-3,4263,-9
Cc1ccc(S(=O)(=O)N2CCN(C(=O)c3cc(C4CC4)nc4c3cnn4C(C)C)CC2)cc1,-9,-4,-7.0,nt,-6,3545,-34
COc1cc(Cl)c(C)cc1NC(=O)Cc1ccc(OC)c(OC)c1,9,0,6.8,0,6,?,-8
COc1ccccc1C1CC(c2ccc(Cl)cc2)Nc2nc(N)nn21 (configuration not stated),-1,-6,2.1,0,6,6385,-16
CCOC(=O)C1CCN(C(=S)NC(=O)c2cccs2)CC1,-6,-7,1.8,1,12,5928,-20
CCCN(CC(=O)Nc1ccccc1C)C(=O)c1ccc(N2CCOCC2)c([N+](=O)[O-])c1,-12,0,-1.3,-3,1,5062,-3
Cc1c(NS(=O)(=O)c2cccc(C(=O)NCc3ccccc3)c2)c(=O)n(-c2ccccc2)n1C,7,8,5.6,-4,3,4626,-14
COc1ccc(C=NNC(N)=S)cc1OC(=O)c1cccc2ccccc12,nt,nt,1.6,nt,-1,nt,nt
COc1cccc(OC)c1C(=O)Nc1nnc(-c2ccc(F)cc2)s1,1,-2,-0.1,-8,2,4122,-25
CC(C)c1nc(SCC(=O)Nc2ccc([N+](=O)[O-])cc2Br)n[nH]1,9,0,3.0,2,-3,4270,-15
O=C(COC(=O)CC1CC2CCC1C2)Nc1ccc(F)cc1 (configuration not stated),-8,17,4.5,1,1,2434,-16
NC(=O)N/N=C/c1sc(=O)n(-c2ccccc2)c1Cl,nt,nt,nt,8,nt,?,-21
COc1ccc(CCN(C)C(=O)C2CCN(C(=O)Nc3ccccc3)CC2)cc1OC,5,0,4.6,-11,0,?,-22
